Source: PubChem
D2 ag – activates the human D2 dopamine receptor | P14416 | DiscoveRx PathHunter D2 beta-arrestin, luminescence, 90 min; 100% = 57 uM dopamine signal | activation, % (no concentration beside the values) | 0.084% of 360,000 active | AID 624465; in the data active = activation above about 40%; inconclusive = about 15% to 40%; inactive = below about 15%; further: compound concentration not given in the record; the text of the record calls up to 30% inactive
Target sequence (P14416 whole entry, looked up): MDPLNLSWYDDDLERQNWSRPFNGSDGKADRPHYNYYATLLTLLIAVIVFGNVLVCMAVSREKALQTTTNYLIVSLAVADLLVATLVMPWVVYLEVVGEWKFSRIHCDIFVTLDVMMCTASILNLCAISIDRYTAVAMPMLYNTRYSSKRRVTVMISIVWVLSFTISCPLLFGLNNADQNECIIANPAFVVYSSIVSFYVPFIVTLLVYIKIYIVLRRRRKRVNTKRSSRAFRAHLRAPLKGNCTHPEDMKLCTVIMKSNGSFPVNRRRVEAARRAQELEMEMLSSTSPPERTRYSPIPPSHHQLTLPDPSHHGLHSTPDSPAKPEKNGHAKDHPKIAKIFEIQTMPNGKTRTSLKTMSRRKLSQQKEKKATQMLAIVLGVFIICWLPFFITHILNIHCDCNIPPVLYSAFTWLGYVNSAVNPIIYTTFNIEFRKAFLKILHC
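DiscoveRx PathHunter D2 beta-arrestin cells (2,100/well) attached overnight, then compound-stimulated 90 min at 37 C in HBSS/10 mM HEPES/0.1% Tween-20 buffer; beta-galactosidase complementation read by luminescence after 1 h at ambient temperature. Dopamine 57 uM final (EC100) as control.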
gsp ag – agonists of gsp mutant (McCune-Albright syndrome); gsp mutant cells, cAMP HTRF, 30 min; control for the full effect not named in the record; Potency, µM (series often up to 76.9 µM), for the others: top-dose activation (cAMP increase), usual class: activators; 0.13% of 340,000 active; AID 624287; active = well fitted activation curve with a large enough effect; inconclusive = small, poorly fitted or top-dose-only effect, or another doubt; inactive = no such curve, though single readings can be large or run the other way; cell line not stated here;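 further: phosphodiesterase inhibitor Ro 20-1724 added with compounds to block cAMP breakdown; potency means the concentration at half of the fitted maximal effect; nearly all actives have a fitted effect of over 60% in size; about a fifth of the inactives were tested at one dose only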
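Cells in DMEM/10% FBS with G418 were pretreated with compounds in DMSO plus […] (300 uM stock) for 30 min at 37C. cAMP was measured by HTRF (cAMP-d2 plus anti-cAMP antibody-K) after 30 min at room temperature.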
PINK1 modulator – PINK1 expression modulation. 0.2% of 410,000 active. AID 624263. Potency, µM (doses to about 76.6 µM), for the others: top-dose activation (PINK1 increase), most hits filed as activators. PINK1 immunofluorescence, high-content cytometry, 24 h; active = well fitted activation curve with a large enough effect; inconclusive = small, poorly fitted or top-dose-only effect; inactive = flat fitted curve, though single readings scatter; cell line not stated here;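 further: potency means the concentration at half of the fitted maximal effect; % of control where 0% means no effect; nearly all actives have a fitted effect of over 65% in size; a mitochondrial uncoupler was the plate control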
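Compound titrations (5 concentrations, 24 h) on a stable cell line; DMSO and CCCP controls. Endpoint: fixed-cell PINK1 immunofluorescence with mitochondrial, cell and nuclear markers, scanned by microplate cytometer.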
Sfp inh – blocks B. subtilis Sfp PPTase activity; Biochemical Sfp PPTase activity, qHTS; Potency, µM, for the others: max response, negative = inhibition, usual class: inhibitors; 3.5% of 310,000 active; AID 1490; active means well fitted inhibition curve with a large enough effect; inconclusive means small, poorly fitted or top-dose-only effect, or another doubt; inactive means no such curve, though single readings can be large or run the other way;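 further: the enzyme is Sfp with the accession as filed and its product quenches rhodamine fluorescence; potency means the concentration at half of the fitted maximal effect; 0% = enzyme reaction without inhibitor and -100% = no enzyme wells; top concentration of the series not given in the record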
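Sfp 15 nM + cpd, 15 min RT; start w/ rhodamine-CoA 5 uM, BHQ-2-YbbR 12.5 uM (final); 50 mM Hepes pH 7.6, 10 mM MgCl2, 0.01% NP-40, 0.01% BSA; read 525/598 nm at 0 and 30 min.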
ClpP mod – qHTS Assay for Activators of ClpP | ATP-dependent Clp protease proteolytic subunit (Bacillus subtilis (strain 168)), P80244 | purified B. subtilis ClpP, FRET peptide cleavage, 20 min | Potency, µM (series often up to 57.5 µM), inactives show top-dose activity change, negative = active | 1.9% of 340,000 active | AID 651965, 2013; active = well fitted falling curve with a large enough effect; inconclusive = small, poorly fitted or top-dose-only effect; inactive = no such curve, though single readings can be large or run the other way; further: potency means the concentration at half of the fitted maximal effect; the source files actives as falling curves though it sought activators and does not explain the sign; nearly all actives have a fitted effect of over 65% in size; many hits overshoot -100%
Target sequence (P80244 whole entry, looked up): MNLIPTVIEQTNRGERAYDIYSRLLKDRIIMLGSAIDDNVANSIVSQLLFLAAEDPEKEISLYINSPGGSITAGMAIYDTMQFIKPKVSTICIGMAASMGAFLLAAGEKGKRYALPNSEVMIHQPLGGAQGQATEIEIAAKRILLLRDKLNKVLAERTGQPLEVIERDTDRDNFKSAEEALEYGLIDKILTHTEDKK
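FRET quenching reversal measured ClpP activation: 10 microg/mL B. subtilis ClpP at pH 8 with the FRET-FV decapeptide, read at 430 nm after 320 nm excitation. The 20-min minus 0-min signal was scaled between DMSO/no-enzyme wells and ADEP (5.8 microM final).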
Menin-MLL FL inh – displaces fluorescein MLL peptide from human menin | 290,000 tested, under 10 active | FP activity change, % at 61.4 µM | AID 1766 | Fluorescence polarization, fluorescein-MLL peptide displacement from menin; inconclusive = falling polarisation curve, or a change in total fluorescence; inactive = total fluorescence flat and polarisation flat or rising; no compound was filed as active; the % refers to the polarisation; negative = inhibition;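 further: % of control where 0% means no effect; inhibitors lower the polarisation; unlabelled MLL peptide was the positive control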
gsp antag – antagonizes gsp, the McCune-Albright syndrome mutation; AID 624288; 0.4% of 340,000 active; gsp-mutant cells, cAMP HTRF, 30 min; control for the full effect not named in the record; Potency, µM (doses to about 76.9 µM), for inactives: at the top dose activity change, negative = inhibition, hits mostly inhibitors; active = falling curve of any shape with a large fitted effect; inconclusive = falling curve, mostly with a smaller effect; inactive = flat or rising curve; cell line not stated here;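 further: intracellular cAMP measured with PDE inhibitor Ro 20-1724 present during compound exposure; potency means the concentration at half of the fitted maximal effect; on the % scale 0 is the no-effect control and ±100 the full control effect; nearly all actives have a fitted effect of over 65% in size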
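Cells, 2000/well, grown 16–24 h in DMEM 10% FBS with 0.5 mg/ml G418, then compounds plus […] (300 uM addition stock), 30 min at 37C. cAMP read by HTRF (cAMP-d2 and anti-cAMP antibody-K in lysis buffer) after 30 min RT.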
Starred values were filed as active, the others as inactive; u = inconclusive; x = not tested or not shown; [ ] = another dose, or the depositor's remark. Outcome played no part in choosing rows; any-hit rate near 5.1%.

A first look (3 entries):
SMILES | D2 ag | gsp ag | PINK1 modulator | Sfp inh | ClpP mod | Menin-MLL FL inh | gsp antag
Cc1ccc2nc(CCl)[n+]([O-])c(-c3ccccc3)c2c1 | 0.4 | 8% | 1.7% | 6% | x | -1.2 | 4%
Cc1nnc(SCC(=O)NC2(C#N)CCCCC2)n1N | -3.6 | 10% | 0.8% | x | -0.3% | x | x
CC1Cc2ccccc2N1C(=O)CCn1c(=O)sc2ccccc21 (configuration not stated) | 2.3 | 24% | -0.6% | 7% | -0.3% | 0.1 | -12%

All compounds of this part, from the first entry:
SMILES | D2 ag | gsp ag | PINK1 modulator | Sfp inh | ClpP mod | Menin-MLL FL inh | gsp antag
Cc1ccc2nc(CCl)[n+]([O-])c(-c3ccccc3)c2c1 | 0.4 | 8% | 1.7% | 6% | x | -1.2 | 4%
Cc1nnc(SCC(=O)NC2(C#N)CCCCC2)n1N | -3.6 | 10% | 0.8% | x | -0.3% | x | x
CC1Cc2ccccc2N1C(=O)CCn1c(=O)sc2ccccc21 (configuration not stated) | 2.3 | 24% | -0.6% | 7% | -0.3% | 0.1 | -12%
CC1CCCN(C(=O)CCNS(=O)(=O)c2ccc3c(c2)oc(=O)n3C)C1 (configuration not stated) | -2.2 | 0% | -0.5% | 12% | -0.6% | x | 9%
O=C(NCCCN1CCN(c2ccccc2F)CC1)C1CCCN(S(=O)(=O)c2cnc[nH]2)C1 (configuration not stated) | -1.9 | -3% | 3.7% | 20% | 1.4% | -0.5 | 12%
CCOc1ccccc1Nc1nc(N)nc(Cl)c1CC | 1.4 | 15% | 1.4% | x | x | x | 7%
O=C(Nc1ccc2c(c1)OCO2)c1ccccn1 | 6.4 | 3% | -1.5% | x | -2.6% | x | 0%
O=C1C(c2ccccc2)SC(=Nc2ccccc2)N1S(=O)(=O)c1ccccc1 (configuration not stated) | -3.8 | 10% | 1.9% | 13µM* | -1.4% | 6.0 | 1%[15.4 µM]
CCOC(=O)c1ccc(NC(=O)NNS(=O)(=O)c2cc(OC)ccc2OC)cc1 | -1.2 | -10%[15.4 µM] | 0.6% | 12% | 21% | -1.4 | 3%
O=c1cc(CN2CCN(S(=O)(=O)c3ccccc3)CC2)nc2sccn12 | 2.9 | -42%[inhibitor] | -0.4% | -17% | x | -11 | -3%
COC(=O)c1c(NC(=O)CC2SC(N)=NC2=O)sc(C)c1C (configuration not stated) | -0.5 | u | 0.2% | 4% | -6.1% | -2.5 | -3%
CCOc1ccc(-c2n[nH]c(C)c2-c2ccccc2OC)c(O)c1 | 0.4 | -48%[inhibitor] | 5.5% | 32%[activator] | -0.7% | -4.4 | -22%
Cc1ccc(C)c(S(=O)(=O)N2CCN(C(=O)c3cc(S(=O)(=O)NCc4ccccc4)ccc3C)CC2)c1 | -0.4 | -7% | 0.3% | 3% | -2.6% | x | -20%
Cc1ccc(C(=O)Nc2ccc(S(=O)(=O)NC3=NCCCCC3)cc2)cc1S(=O)(=O)N1CCOCC1 | -0.9 | u | -0.5% | x | -1.0% | x | 5%
CCOC(=O)C1=CC[C@@H](c2ccccc2)N(S(=O)(=O)c2ccc(C)cc2)[C@H]1C=C(C)C | -5.9 | x | 0.6% | x | -0.4% | x | x
Cc1noc2ncnc(N3CCCC3)c12 | -6.6 | u | 1.0% | 20% | 0.9% | -3.3 | 7%
NS(=O)(=O)c1ccc(CNC(=O)c2scc3c2CCCC3)cc1 | -0.4 | 9% | 0.3% | 5% | -0.4% | -2.5 | -2%
COc1ccc(CSCCNC(=S)Nc2ccccc2)cc1Cl | 2.5 | u | 1.1% | 15% | 0.8% | -1.7 | -16%
CC(=NNC(=O)Cn1ccc(C(F)(F)F)n1)c1ccc(-n2ccnc2)cc1 | -2.8 | 7%[15.4 µM] | 2.1% | x | -0.7% | x | -7%
O=C1CCCC2=C1C(c1ccc(Cl)cc1)C1C(=O)c3ccccc3C1=N2 (configuration not stated) | -5.9 | u | 5.0%[38.3 µM] | u | -2.5% | -1.8 | u
Cc1cc(C(=O)CSc2nnc(N)s2)c(C)n1Cc1cccs1 | 2.4 | -32% | 0.9% | -11% | -3.2% | -0.7 | 2%
CCCCOC(=O)c1ccc(NC(C)=O)cc1 | 0.2 | -22% | 0.6% | 13% | 0.9% | 1.9 | 11%
CCC(=O)c1ccc(OCC(=O)Nc2ccccc2N2CCOCC2)cc1 | 1.7 | -114%[inhibitor] | 3.7% | x | -0.4% | x | -23%
CC1(C)Cc2ccccc2C(NNC(=O)c2ccccn2)=N1 | -7.0 | 11% | -0.2% | 9% | -1.4% | 0.5 | 3%
Cc1ccc(NC(=O)NC2OC(=O)c3ccccc32)cc1 (configuration not stated) | 0.8 | -1% | 2.3% | x | x | x | 2%
COc1ccc(-n2cnc3c(sc4nc(N5CCOCC5)c5c(c43)CCCC5)c2=O)cc1 | -4.7 | 3%[15.4 µM] | 3.2% | 1% | -1.0% | -2.4 | 0%
COc1ccc(C)cc1NC(=O)N1CCC(CO)(CC2CCCCO2)CC1 (configuration not stated) | -1.0 | 2%[15.4 µM] | -0.8% | 15% | -10% | -5.6 | 12%
CCOC(=O)c1cc(CC)sc1NC(=O)Cc1ccccc1 | -4.3 | -39%[inhibitor] | 7.0%[38.3 µM] | -24% | -8.3% | 0.9 | -2%
CCOc1ccc(CCNC(=O)COC(=O)c2cc([N+](=O)[O-])ccc2N2CCOCC2)cc1OCC | -1.4 | u | 1.6% | 12% | 1.1% | x | -14%
O=C(O)C1CC1C(=O)N1CCN(c2ccc(Cl)c(Cl)c2)CC1 (configuration not stated) | -2.1 | 9% | -1.7% | -1% | 0.1% | 3.8 | 9%
CC1=CC2=NC(=O)/C(=C/c3cccn3Cc3ccccc3)C(=N)N2O1 | -0.6 | 9%[15.4 µM] | -0.2% | -8% | x | 9.7 | -8%
Cc1ccc(-n2ncc3c2CC(C)(C)CC3NC(=O)CCN2CCCCC2=O)cc1 (configuration not stated) | -6.9 | 12% | 4.1% | 7% | -2.3% | x | -4%
C#CCOCCOCCOCCNc1nc(N2CCN(C(=O)[C@H]([C@@H](C)CC)n3cc([C@@H](N)CO)nn3)CC2)nc(N2CCN(C(=O)[C@H](CCCCN)n3cc([C@@H](N)C(C)CC)nn3)CC2)n1 (some centres not stated) | -1.5 | 17% | 1.3% | -14% | 0.2% | -3.9 | 8%
O=C1CC(c2ccc(Cl)cc2)c2c(O)cc(O)cc2O1 (configuration not stated) | -2.7 | -5%[15.4 µM] | 8.0% | 12% | -0.1% | 2.1 | -17%
CCN(CC)CCN(C(=O)CN1C(=O)c2ccccc2C1=O)c1nc2cc3c(cc2s1)OCO3 | -2.3 | 17% | 1.0% | -7% | -0.5% | 4.0 | -8%
Cc1ccc(S(=O)(=O)Nc2cc3c(C(=O)Nc4ccccc4)c(C)oc3c3ccccc23)cc1 | 13 | 22% | 2.5% | 16% | -2.3% | u | -7%
Cc1cc(C(=O)CSc2ccc(F)cc2)cc(C)c1O | -1.6 | 2% | 3.4% | 10% | x | -0.9 | -21%
COc1ccccc1Cc1nnnn1CC(=O)O | -3.5 | -16% | -0.8%[38.3 µM] | 7% | -1.1% | 0.0 | 5%
O=C(NCC(=O)N(CCc1ccccc1)C(C(=O)NC1CCCC1)c1cccnc1)c1ccco1 (configuration not stated) | -5.0 | 5% | 0.1% | 15% | -0.5% | 3.0 | 16%
O=C(C[n+]1ccc(/C=N/O)cc1)N(Cc1ccccc1)Cc1ccccc1 | -1.1 | 6%[15.4 µM] | -1.2% | 17% | x | -3.6 | 10%
O=C(Nc1cccc(N2C(=O)C3C4C=CC(C4)C3C2=O)c1)c1cccs1 (configuration not stated) | -6.5 | 16% | 0.3% | 5% | 0.8% | 0.0 | -3%
CC1CCCN(S(=O)(=O)CCNC(=O)c2ccc3c(c2)OCO3)C1 (configuration not stated) | -3.4 | -1% | -1.5% | x | -3.7% | x | 2%
Cc1csc(SCC(=O)c2c(N)n(C)c(=O)n(C)c2=O)n1 | -3.3 | u | 0.2% | 3% | -4.2% | 1.1 | u
O=C(Nc1ccc(Cl)c(Cl)c1)Nc1ccccc1O | -5.1 | -12% | u | u | 0.0% | 7.5 | -19%
COc1ccc(CN2CCC2(C)C(=O)NCCc2c[nH]c3ccccc23)c2ccccc12 (configuration not stated) | -4.4 | x | 0.6% | x | -4.6% | x | x
O=C(CBr)Nc1c2c(nn1-c1ccccc1)CSC2 | -2.7 | -7%[15.4 µM] | 0.9% | -14% | x | -1.4 | -5%
O=C(NCc1ccc(Cl)cc1)C1CCN(C(=O)Cc2ccccc2)CC1 | 1.7 | u | -0.3% | 6% | 0.8% | -0.2 | -3%
O=C(CC1N=C(Cc2ccccc2)NNC1=O)N/N=C/c1ccc([N+](=O)[O-])cc1 (configuration not stated) | 1.6 | 5%[15.4 µM] | 1.6% | 19% | -0.3% | -3.3 | -19%
CC(C)(CNC(=O)/C=C/c1ccc(F)cc1)CNC(=O)/C=C/c1ccc(F)cc1 | -0.7 | -8%[15.4 µM] | u | 10% | 1.1% | 2.5 | -22%
COc1cccc(OC)c1C(=O)NC(=S)NCc1cccnc1 | 0.0 | -34%[inhibitor] | -1.8% | 5% | -3.7% | x | 4%
COC(=O)c1ccc(COC(=O)CCC(=O)c2cccs2)cc1 | -3.5 | 4%[15.4 µM] | 1.3% | 5% | x | 5.5 | 2%
S=c1[nH]nc(-c2ccccc2Br)n1Cc1ccccc1 | 8.9 | 13% | -0.6% | -8% | 0.0% | -0.2 | 4%
Cc1cc(C(=O)N/N=C/c2ccc(OC(=O)c3ccccc3Br)cc2)n[nH]1 | -4.7 | 0%[15.4 µM] | 4.1% | 24% | -1.1% | 0.4 | -13%
